High-throughput results from PubChem.
Mtb bLac sens: beta-lactam sensitization of Mtb H37Rv, H37Rv; M. tuberculosis H37Rv growth with meropenem, percent inhibition; hits of this screen are not shown here; inhibition, % at 25 µM; 330,000 tested, 0.27% active; AID 434955, 2010;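 active = about 74% or more and at least 40 points above the plate without the antibiotic, then above 30% in a dose series; inconclusive = first-round hits that could not be retested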;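 also: growth measured after seven days incubation then overnight dye step; 0% = bacteria only wells and 100% = bacteria with antibiotic; twin plates without the antibiotic show which effects depend on it; some results filed as inactive read as strong as hits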
Starred values were filed as active, the others as inactive; ? = inconclusive; & = joins results of further samples. Only part of the results is shown. The share of hits here may be higher or lower than overall.

molecule,Mtb bLac sens
CN1C(=O)N(CC(=O)N2CCN(S(=O)(=O)c3ccc(Cl)s3)CC2)C(=O)C12CCCCC2,-9.2
CC(=O)c1ccc(NC(=O)COC(=O)/C=C/c2cccs2)cc1,9.4
Cc1ccc(C(=O)Nc2cc(C(F)(F)F)ccc2-n2cncn2)o1,1.6
Cc1cccc(NC(=O)Nc2ccc(S(=O)(=O)Nc3onc(C)c3C)cc2)c1,-7.7
Nc1ncnc2c1ncn2C1OC(C(=O)NC2CC2)C(O)C1O (stereo not drawn),1.4
O=C(C1CCN(S(=O)(=O)c2ccc(Cl)cc2)CC1)N1CCN(c2ccccn2)CC1,-1.4
C=CC(C)(O)CCC=C(C)C (stereo not drawn),-1.8
COC(=O)C1=C(c2ccc(OC(F)(F)F)cc2)C[C@@H]2CC[C@H]1N2C(=O)NCc1cccc2ccccc12,11.6
COc1cc(C)ccc1OCC(=O)OCC(=O)c1ccc[nH]1,42.8
O=C(COC(=O)c1ccc(F)cc1F)NCCC1=CCCCC1,13.2
Cc1ccc(Nc2nc(NCCO)c3ccccc3n2)cc1C,11.9
O=C(c1cc(C2CC2)nn1-c1ccccc1)N1CCN(S(=O)(=O)c2c(F)cccc2F)CC1,-1.5
CC(C)N(C(=O)[C@H]1CC(CC(=O)NCCc2ccccn2)C(=O)N2CCc3c([nH]c4ccccc34)[C@]12C)C(C)C (stereo partly drawn),-3.9
COc1cccc(CNC(=O)CCC(=O)N2CCOCC2)c1,-4.2
CCOc1ccc2oc(C(=O)OCC(=O)NC3CCCCC3)c(C)c2c1,19.1
O=C(COC(=O)CNC(=O)c1cccc(OC(F)F)c1)NCc1ccc2c(c1)OCO2,1.3
O=C(O)c1cc(S(=O)(=O)NCC2COc3ccccc3O2)ccc1Cl (stereo not drawn),-5.3
COc1ccccc1C(=O)NCC(=O)NCCC(c1ccccc1)c1ccccc1,1.4
CC(=O)Nc1ccc(S(=O)(=O)NCC(=O)OCC(=O)NCc2ccc3c(c2)OCO3)cc1,-4.5
Cn1nc(C(=O)OCC(=O)Nc2ccc(Cl)cc2Cl)c2ccccc2c1=O,-2.7
Cc1c(C(=O)N2CCN(c3ccccc3)CC2)oc2c(F)cccc12,3.6
Cc1ccc2c(c1)c1c3n2CCNC3CCC1 (stereo not drawn),-5.4&-2.3
CCCN1C(=O)CC(=O)N=C1SCC(=O)Nc1ccccc1F,0.2
O=C(COC(=O)CNC(=O)c1ccc([N+](=O)[O-])o1)Nc1ncc(Cl)cc1Cl,-5.9
CCc1ccc(OCC(=O)OC(C)C(=O)Nc2ccc(Cl)cn2)cc1 (stereo not drawn),4.0
O=C(Nc1ccc(Cl)c(S(=O)(=O)N2CCOCC2)c1)C1=NN(c2ccccc2)C(=O)CC1,-2.6
CCOc1ccc([C@@H]2CC=C(C(=O)O)[C@H](c3ccc(Cl)cc3)N2S(=O)(=O)c2ccc(C)cc2)cc1,16.7
Cc1ccc(NC(=O)c2ccccc2OCC(=O)Nc2ccccc2F)cc1S(=O)(=O)N(C)C,-13.6
CCN(CC)S(=O)(=O)c1cc(C(=O)OC(C)C(=O)NCc2ccco2)ccc1C (stereo not drawn),-6.8
O=C(OCC(=O)c1c[nH]c2ccccc12)c1cc(S(=O)(=O)N2CCOCC2)ccc1F,-6.1
Cc1cccc(OCC(=O)NC2CCCCCC2)c1C,0.4
COc1ccc(CCNC(=O)c2cc3c(=O)n4ccccc4nc3n(CC3CCCO3)c2=N)cc1OC (stereo not drawn),2.9
C[n+]1cccc(C(=O)N/N=C/c2ccc3c(c2)OCO3)c1,-5.9
CCCCN(C(=O)CSc1nnc(-c2ccc(Cl)cc2)o1)c1c(N)n(CC(C)C)c(=O)[nH]c1=O,-0.5
O=C(C[C@@H]1C/C=C\CCC(=O)O[C@H](c2ccccc2)CNC1=O)N[C@H](CO)Cc1ccccc1,-6.0
COCc1c(C(=O)Nc2cccc(S(=O)(=O)N3CCCCC3)c2)oc2ccccc12,-6.6
O=C(NCC1CCCCC1)c1cc(S(=O)(=O)N2CCOCC2)ccc1F,-12.2
COc1ccc(-c2nn(-c3ccccc3)cc2C(=O)NC(=S)N2CCOCC2)cc1OC,1.8
CCc1cc(C(=O)N2CCN(S(=O)(=O)c3ccccc3F)CC2)sc1C,-4.8
COC1=CC2C3Cc4ccc(OC)c(O)c4C2(CCN3C)CC1=O (stereo not drawn),-7.2
N#CCCCCC#N,-0.1
CC(C)(C)OC(=O)C[C@H]1C/C=C\C[C@@H](CC(=O)N[C@@H](CO)Cc2ccccc2)C(=O)NC[C@@H](c2ccccc2)OC1=O,-0.3
COc1ccc(CN(C)C(=O)CCN=C2NS(=O)(=O)c3ccccc32)c(OC)c1,5.7
CN(CC(=O)N1CCOCC1)S(=O)(=O)c1ccc2ccccc2c1,-3.4
Cc1ccccc1OCCC(=O)NNC(=O)c1ccccc1F,2.7
CCn1c(C)nc2cc(C(=O)NNC(=O)[C@@H](NC(=O)c3cc(OC)cc(OC)c3)C(C)C)ccc21,-0.8
CCOC(=O)C1=C(COC(=O)Cc2ccc(OC)c(OC)c2)NC(=O)NC1C (stereo not drawn),3.6
COc1ccc(C2=NN(C(=O)COC(=O)c3ccc(S(C)(=O)=O)c([N+](=O)[O-])c3)C(c3ccco3)C2)cc1 (stereo not drawn),92.1
O=C(NCc1cccs1)C1CC(=O)N(Cc2ccccc2)C1 (stereo not drawn),-0.9
Cc1ccc2c(CN3CCC(C(N)=O)CC3)cc(=O)oc2c1C,-25.6
COc1ccc(S(=O)(=O)N2CCOCC2)cc1NC(=O)C1CC1,0.0
C=CC[C@H](CC(=O)NCCO)C(=O)N[C@H](COC(=O)[C@H](CC=C)CC(=O)OC(C)(C)C)Cc1c[nH]c2ccccc12,-0.4
CCN(c1ccccc1)S(=O)(=O)c1ccc(C(=O)NCCc2ccc(S(N)(=O)=O)cc2)cc1,-2.8
Cc1cc(Cl)ccc1OCC(=O)OCC(=O)c1c(N)n(C)c(=O)n(C)c1=O,2.5
CCCC(=O)Nc1nnc(SCC(=O)NC2CC2)s1,-7.8
CCC(=O)c1ccc(OCC(=O)OCC(=O)Nc2cccc(S(=O)(=O)N3CCCC3)c2)cc1,-2.1
COc1ccc(C(=O)CC(=O)Nc2ccc([N+](=O)[O-])cc2)cc1,28.3
CC1CCC(NC(=O)CSc2ccc(S(=O)(=O)N(C)C)cn2)CC1 (stereo not drawn),-5.8
COc1cccc(C2(C)NC(=O)N(CC(=O)Nc3ccc(N4CCOCC4)cc3)C2=O)c1 (stereo not drawn),-14.7
CC(C)N1C(=O)C(=O)N(CC(=O)N(C)c2ccccc2)C1=O,-3.8

Continued.
molecule,Mtb bLac sens
COc1ccc(S(=O)(=O)N(C)C)cc1NC(=O)COC(=O)Cn1cnc2ccccc2c1=O,4.4
C=CCN(C(=O)COC(=O)c1cc[n+]([O-])cc1)c1nc(-c2ccccc2)cs1,1.4
COc1ccc(OCCOc2ccc(S(=O)(=O)N3CCCC3)cc2[N+](=O)[O-])cc1,0.6
O=C(CCC(=O)c1cccs1)NNC(=O)c1ccccc1Cl,-0.9
CC(=O)OCC(=O)C1CCC2C3CC=C4CC(O)CCC4(C)C3CCC12C (stereo not drawn),1.6
O=S(=O)(Nc1ccccc1F)c1cccc(NC(=S)NCCN2CCOCC2)c1,86.3
CN(CC(=O)Nc1cccc(F)c1)CC(=O)N1CCCCC1,-0.5
CC(=O)Nc1ccc(S(=O)(=O)N[C@@H](C)C(=O)OCC(=O)c2ccc(C)cc2)cc1,-2.3
Cc1[nH]c2ccc(O)cc2c1CCN,-4.9
O=C(COC(=O)c1cccc(S(=O)(=O)N2CCOCC2)c1)Nc1ncc(Cl)cc1Cl,-7.7
O=C(c1ccccc1)c1cccc(C(=O)c2ccccc2)c1,14.1
COc1cc(CCCN2CCNC[C@@H]2c2ccccc2)cc(OC)c1OC,-2.4
Clc1ccccn1,4.0
COc1ccc(OCC(=O)N/N=C(\C)CC(=O)Nc2ccc(NC(C)=O)cc2)cc1,?
COc1ccc(/C=N/NC(=O)c2cccc(NC(=O)c3ccccc3Cl)c2)cc1,-0.8
CN(C)C(=O)COC(=O)c1cccc(S(=O)(=O)N2CC3(C)CC2CC(C)(C)C3)c1 (stereo not drawn),-2.1
Cc1onc(-c2ccccc2)c1C(=O)NN1CCOCC1,-10.3
O=C(NCCc1ccccn1)c1c(-c2ccsc2)sc2ccccc12,0.6
CCCCNc1c(-c2ccc(Sc3ccc(OC)cc3)cc2)nc2cc(C)ccn12,79.9
CCN(CC)C(=O)c1[nH]cnc1C(=O)N[C@H](C)c1ccccc1,9.8
Cc1noc(C)c1C(=O)Nc1cc(Cl)ccc1N1CCOCC1,9.5
C[C@H](CO)N1C[C@H](C)[C@@H](CN(C)C(=O)Nc2ccc3c(c2)OCO3)Oc2c(cccc2N(C)C)C1=O,-1.3
COc1ccc(Cl)cc1C(=O)O/N=C(\N)c1ccccn1,32.7
CCOC(=O)[C@H]1[C@H]2COc3cc(OC)ccc3[C@@H]2N2C(=O)c3cc(OC)c(OC)cc3NC(=O)[C@@]12C,7.5
COc1ccc(NC(=O)c2ccccc2Oc2ccccc2)cc1,56.6
O=[N+]([O-])c1ccc(F)cc1F,7.2
CC(Sc1nnc(-c2ccccc2F)n1C1CC1)C(=O)NCc1ccco1 (stereo not drawn),-6.4
CCOC(=O)c1c(C)[nH]c(C(=O)OCC(=O)c2ccc(OC)cc2OC)c1C,-4.2
O=C1NC[C@H](c2ccccc2)OC(=O)[C@@H](Cc2ccc(F)cc2)C/C=C\C[C@H]1CC(=O)N(CCO)Cc1ccccc1,8.6
O=S(=O)(Nc1ccccc1N1CCOCC1)c1ccc(Cl)cc1,3.4
COc1ccc(NC(=O)Cc2nnc(SCC(=O)Nc3ccc(F)cc3)n2C)cc1,-1.0
CN(CCC(=O)Nc1cc(S(=O)(=O)N(C)C)ccc1Cl)CC(=O)Nc1ccc(F)cc1,-2.7
COc1cc(CCC(=O)OCC(=O)c2ccc[nH]2)cc(OC)c1OC,-2.7
CCc1ccc(C(=O)CN2C(=O)NC3(CCc4ccccc43)C2=O)cc1 (stereo not drawn),-2.7
O=C(O)CCC(=O)N1CCN(Cc2ccc3c(c2)OCO3)CC1,2.9
CC(C(=O)O)c1ccc(C(=O)c2ccccc2)s1 (stereo not drawn),-5.4
Cc1ccnc(OC(C(=O)O)C(OCc2ccccc2)(c2ccc(F)cc2)c2ccc(F)cc2)n1 (stereo not drawn),3.8
CC(NC(=O)CN1C(=O)NC(c2ccccc2)(c2ccccc2)C1=O)c1cccs1 (stereo not drawn),-3.6
COc1ccc(/C=C(/C(=O)N2CCCCC2C(=O)O)c2ccc(OC)c(OC)c2)cc1 (stereo not drawn),2.0
Cc1cccc(OCCC(=O)NNC(=O)Cn2nc(C)cc2C)c1,6.3

An excerpt from above in order of molar mass, largest number first.
molecule,Mtb bLac sens
O=S(=O)(Nc1ccccc1F)c1cccc(NC(=S)NCCN2CCOCC2)c1,86.3
O=S(=O)(Nc1ccccc1N1CCOCC1)c1ccc(Cl)cc1,3.4
Cc1ccc2c(c1)c1c3n2CCNC3CCC1 (stereo not drawn),-5.4&-2.3

(list continues)
molecule,Mtb bLac sens
COCC(C)n1c(SCC(=O)NC2CCCCC2C)nc2ccccc2c1=O (stereo not drawn),2.5
CC1CCC(NC(=O)CN2C(=O)C3CC=CCC3C2=O)CC1 (stereo not drawn),3.7
CN(C(=O)COC(=O)Cc1ccc(Cl)cc1)C1CCCCC1,0.5
Cc1ccccc1C(=O)N1CCC(C(=O)Nc2ccc(S(=O)(=O)N3CCOCC3)cc2)CC1,-0.2
CCOc1ccc(NC(=O)c2ccc(OCC3CCCO3)cc2)cc1S(=O)(=O)N(CC)CC (stereo not drawn),-2.2
COc1ccc(NS(=O)(=O)c2cccc(C(=O)OCC(=O)c3c(N)n(C)c(=O)n(C)c3=O)c2)cc1,0.7
Cc1ccc(C(=O)OC(C)C(=O)Nc2ccc3c(c2)OCO3)c(O)c1 (stereo not drawn),-6.9
CC(=O)c1ccc(S(=O)(=O)Nc2ccc(C(=O)NCCCn3ccnc3)cc2)cc1,0.2
CC[C@@]1(C(=O)OC)N[C@H](CN(C)S(=O)(=O)c2ccccc2)[C@@H]2C(=O)N(C)C(=O)[C@@H]21,5.4
CC(NC(=O)c1ccc(NC(=O)CC2SC(N3CCCC3)=NC2=O)cc1)c1ccccc1 (stereo not drawn),-1.0
O=C(Nc1ccc(F)cc1F)C1CC(=O)N(Cc2ccccc2)C1 (stereo not drawn),-8.5
COc1ccc(NC(=O)CCNC(=O)c2ccco2)cc1Cl,85.2
CN(CC(=O)Nc1ccc(N2CCOCC2)cc1)C(=O)Cc1ccccc1,4.4
CCC(C)Sc1ccc([C@@H]2[C@H]3C(=O)N(CC)C(=O)[C@H]3[C@]3(C(=O)OC)CCCCN23)cc1 (stereo partly drawn),-4.7
Cc1ccc(N2CC(C(=O)NCCN3CCOCC3)CC2=O)cc1 (stereo not drawn),-1.3
CCc1nc2nc(C)c(NS(=O)(=O)c3ccc(CC(C)C)cc3)c(=O)n2[nH]1,0.1
CC(C)c1ccc(OCC(=O)N2CCc3ccccc3C2)cc1,3.8
O=C/C=C/c1ccccc1,-0.5
Cc1ccc(NC(=O)COc2ccc(N(C)C(=O)C(C)(C)C)cc2)cc1S(=O)(=O)N1CCCCC1,-4.0
N#Cc1ccc(OCC(=O)NCCCn2ccnc2)cc1,2.2
CN(Cc1ccc(Cl)c(Cl)c1)C(=O)C1=CC=CN2CCS(=O)(=O)N=C12,4.7
